# Screening results: PubChem, several laboratories
# HSV augment = increases HSV replication in cells; HSV replication augmentation in cells, fold increase; maximum fold increase; 0.005% of 220,000 active; AID 1956;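 active means peak rise of 1.5-fold or more in the series; inconclusive means self-fluorescent or not available for retest; tested in PC3 cells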;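 further: first round at 10 µM; read as green reporter fluorescence; hits show the peak of a series up to 25 µM; 1 = signal of infected wells without compound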
# PKD1 kinase inh = inhibitors of human PKD1 kinase. Q15139. PKD1 kinase fluorescence polarization assay. inhibition, %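 (about 10 µM by stock and volumes)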. 0.056% of 200,000 active;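 active means inhibition of 50% or more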;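 further: controls were vehicle for no effect and a reference inhibitor for full effect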
# Insulin prom inh = TRM-6 insulin promoter activity inhibition; TRM-6 cells (human fetal islet line), insulin promoter-eGFP reporter, imaging; reporter expression induced with tamoxifen; inhibition, % at 2 µM; 0.9% of 130,000 active;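 active means inhibition above the mean plus 3 SD, with well images judged a real hit on visual review, cut at about 60% in these data, passing the limit was not always enough; inconclusive means inhibition over the cutoff but images rejected on review; inactive means inhibition not above the cutoff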
# GALR2 agonist = agonists of human galanin receptor 2 (GALR2); O43603; GALR2-expressing cells, agonist activation read-out; activation, %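 (tested at 5 µM)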; 0.48% of 140,000 active;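 active means above mean plus 3 SD of all compounds, about 5% in these data, not always enough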;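 further: 0% = vehicle buffer wells and 100% = reference agonist at full effect; tested in CHO reporter cells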
# Target sequence (O43603 whole entry, looked up): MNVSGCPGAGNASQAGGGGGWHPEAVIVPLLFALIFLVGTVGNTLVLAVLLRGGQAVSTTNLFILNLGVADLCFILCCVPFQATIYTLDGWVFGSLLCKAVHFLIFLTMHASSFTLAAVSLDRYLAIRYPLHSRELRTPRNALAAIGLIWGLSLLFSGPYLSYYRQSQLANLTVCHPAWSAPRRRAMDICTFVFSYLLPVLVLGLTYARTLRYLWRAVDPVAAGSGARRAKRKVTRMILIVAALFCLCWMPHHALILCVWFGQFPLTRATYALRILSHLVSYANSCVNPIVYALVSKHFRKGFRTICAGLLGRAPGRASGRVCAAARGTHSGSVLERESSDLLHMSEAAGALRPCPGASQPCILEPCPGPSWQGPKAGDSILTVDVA
# RGS16-Gao = regulators of human RGS16-Galphao interaction | O15492+P09471 | bead-based flow cytometry RGS16-Galphao binding, fluorescence; actives lie on both sides | binding response (% of control), % at 10 µM | 0.38% of 220,000 active | AID 1441;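 active means below 25% or above 175%, edge rows of some plates excepted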;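 further: Galphao activated by GDP with aluminum fluoride before binding; 100% = wells without compound and 0% = beads without RGS; some results beyond the cut were filed as inactive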
# Target sequence (O15492 whole entry, looked up): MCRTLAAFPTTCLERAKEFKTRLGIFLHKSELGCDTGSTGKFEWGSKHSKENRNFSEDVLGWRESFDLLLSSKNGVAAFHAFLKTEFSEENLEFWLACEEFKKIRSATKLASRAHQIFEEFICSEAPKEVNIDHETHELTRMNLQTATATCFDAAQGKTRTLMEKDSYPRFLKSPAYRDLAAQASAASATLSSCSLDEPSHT
# Target sequence (P09471 whole entry, looked up): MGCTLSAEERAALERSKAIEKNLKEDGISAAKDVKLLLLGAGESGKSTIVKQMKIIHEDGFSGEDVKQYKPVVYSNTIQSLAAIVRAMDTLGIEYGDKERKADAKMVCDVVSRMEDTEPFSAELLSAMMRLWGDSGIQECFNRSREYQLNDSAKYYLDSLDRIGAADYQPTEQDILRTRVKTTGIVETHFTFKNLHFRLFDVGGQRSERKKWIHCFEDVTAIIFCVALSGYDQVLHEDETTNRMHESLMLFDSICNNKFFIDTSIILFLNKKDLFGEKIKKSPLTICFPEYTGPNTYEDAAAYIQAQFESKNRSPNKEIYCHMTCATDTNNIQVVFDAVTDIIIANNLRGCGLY
# Insulin prom inh cell count = recorded beside Insulin prom inh, whose call it bears; normalized cell count, %; measured here: cell count, toxicity; reference of the scale not given here;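 cells exposed to compound for 48 h; stained nuclei by imaging scaled within each plate; lower means fewer cells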
# HSV augment primary fold = further read-out of HSV augment, marked with its call; fold increase; compound at 10 µM; measured here: primary screen fold increase 10 uM; tested in PC3 cells;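 GFP signal in the first replicate; 1 = infected wells without compound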
# * marks the source's active call; other numbers are inactive results; i = inactive; ? = inconclusive; . = no result given.
SMILES,HSV augment,HSV augment primary fold,PKD1 kinase inh,Insulin prom inh,Insulin prom inh cell count,GALR2 agonist,RGS16-Gao
O=S(=O)(c1ccc(Cl)cc1)N1CCN(c2nc(-c3cccs3)nc3ccccc23)CC1,i,0.88,3.3,25.9,110.3,-2.1,112.1
Cc1ccc(NC(=O)c2nn(C34CC5CC(CC(C5)C3)C4)cc2[N+](=O)[O-])cc1,i,0.72,-10.6,.,.,-0.5,103.8
CN(C)C=NC(=O)c1ccc(N2CCN(c3ncc(C(F)(F)F)cc3Cl)CC2)cc1,i,0.96,-4.3,.,.,-2.2,107.4
Cc1c(Cl)ccc2c(C(=O)NCCN3CCCCC3)cc(-c3ccccn3)nc12,i,0.61,-6.2,.,.,.,100.3
Cc1ncsc1C(=O)O,i,1.02,-2.7,0.0,87.5,.,97.4
O=C(O)CSc1ccccc1C(=O)O,i,0.99,-1.9,-9.6,89.0,-2.4,103.2
C=CCNC(=O)CNS(=O)(=O)c1ccc(F)cc1,i,0.84,3.6,25.7,130.9,-0.9,23.2
COc1cc(NC(=O)CN2C(=O)C(c3ccccc3)=NC23CCCCCC3)cc(OC)c1,i,0.88,-3.9,61.3,75.6,-0.2,106.6
CC(C)c1ccc(C2=C(O)c3ccccc3C(=O)C2=O)cc1,.,.,-2.3,50.0,136.6,-1.4,91.9
COc1cc(CCC(=O)Oc2ccc(C(C)=O)cc2)cc(OC)c1OC,i,1.01,-9.5,.,.,-0.9,131.6
Clc1ccc2c(c1)c1ccccc1n2CN1CCOCC1,i,0.83,11.2,.,.,-0.9,104.6
CCc1cc2ccc(C)cc2nc1SCC(=O)Nc1cc(OC)c(OC)cc1C(=O)O,.,.,-8.8,-53.9,113.2,-1.4,106.8

# Random excerpt: two entries already listed
SMILES,HSV augment,HSV augment primary fold,PKD1 kinase inh,Insulin prom inh,Insulin prom inh cell count,GALR2 agonist,RGS16-Gao
CCc1cc2ccc(C)cc2nc1SCC(=O)Nc1cc(OC)c(OC)cc1C(=O)O,.,.,-8.8,-53.9,113.2,-1.4,106.8
Cc1ncsc1C(=O)O,i,1.02,-2.7,0.0,87.5,.,97.4

# The main list resumes, starting 2 compounds before the break.
SMILES,HSV augment,HSV augment primary fold,PKD1 kinase inh,Insulin prom inh,Insulin prom inh cell count,GALR2 agonist,RGS16-Gao
Clc1ccc2c(c1)c1ccccc1n2CN1CCOCC1,i,0.83,11.2,.,.,-0.9,104.6
CCc1cc2ccc(C)cc2nc1SCC(=O)Nc1cc(OC)c(OC)cc1C(=O)O,.,.,-8.8,-53.9,113.2,-1.4,106.8
CN(CCN1CCOCC1)Cc1nc(-c2ccccc2)no1,i,0.99,-4.3,.,.,.,108.5
CCOC(=O)N1CCC(N(CCN(C)C)C(=S)Nc2ccccc2Cl)CC1,i,0.97,-8.0,-73.3,94.8,.,96.7
Cc1ccc(-c2cn3cccnc3n2)cc1NC(=O)c1cccs1,i,0.92,6.6,.,.,-0.9,104.8
Cc1nnc(SCC(=O)N2CCN(S(=O)(=O)c3ccccc3)CC2)s1,i,0.89,1.1,-7.1,166.7,.,101.1
CCOC(=O)N1CCN(C(=O)/C(=C\c2cccs2)NC(=O)c2cccs2)CC1,i,0.98,1.9,-15.8,73.2,.,101.1
COCc1cc(C)nc(SCC[N+](C)(C)CC(=O)Nc2ccccc2)c1C#N,i,0.92,1.7,-8.3,135.1,.,100.0
O=C1NC[C@@H](Cc2cccc3ccccc23)N(CC2(c3ccccc3)CC2)C1=O,i,0.83,.,.,.,.,89.6
CC1CCN(c2nc3nonc3nc2N2CCC(C)CC2)CC1,i,1.03,-0.2,9.5,146.8,-2.2,51.9
O=C(Nc1nnc(-c2ccc(F)cc2)o1)c1cccc([N+](=O)[O-])c1,i,0.99,-6.2,0.0,100.0,.,93.0
Cc1cccc(C(=O)N/N=C/c2ccncc2)c1,i,1.06,7.7,.,.,0.2,95.6
O=C(CSc1ncccn1)NC(=O)c1ccccc1,i,1.03,-2.3,-6.7,92.9,.,101.6
CCOC(=O)Cc1csc(NC(=O)COc2ccc(N(C)S(=O)(=O)c3ccc(C)cc3)cc2)n1,i,1.05,-1.3,-50.0,27.4,-0.2,113.9

# Structural class, the entries above containing fluorine
SMILES,HSV augment,HSV augment primary fold,PKD1 kinase inh,Insulin prom inh,Insulin prom inh cell count,GALR2 agonist,RGS16-Gao
CN(C)C=NC(=O)c1ccc(N2CCN(c3ncc(C(F)(F)F)cc3Cl)CC2)cc1,i,0.96,-4.3,.,.,-2.2,107.4
C=CCNC(=O)CNS(=O)(=O)c1ccc(F)cc1,i,0.84,3.6,25.7,130.9,-0.9,23.2
O=C(Nc1nnc(-c2ccc(F)cc2)o1)c1cccc([N+](=O)[O-])c1,i,0.99,-6.2,0.0,100.0,.,93.0

# Part of the list above, showing only HSV augment and Insulin prom inh cell count.
SMILES,HSV augment,Insulin prom inh cell count
O=C(Nc1nnc(-c2ccc(F)cc2)o1)c1cccc([N+](=O)[O-])c1,i,100.0
CCOC(=O)Cc1csc(NC(=O)COc2ccc(N(C)S(=O)(=O)c3ccc(C)cc3)cc2)n1,i,27.4

# (next part)
SMILES,HSV augment,HSV augment primary fold,PKD1 kinase inh,Insulin prom inh,Insulin prom inh cell count,GALR2 agonist,RGS16-Gao
FC(F)(F)c1ccc(CN2CCCCCC2)cc1,i,1.05,-14.2,-25.0,152.9,-1.6,95.7
CCN(Cc1ccccc1)C(=O)c1ccc(CNS(=O)(=O)c2ccc(C)cc2)cc1,i,1,-16.6,-16.7,132.6,-0.2,106.1
CCc1nnc(NC(=O)c2n[nH]c(=O)c3ccccc23)s1,i,0.94,.,.,.,.,104.1
COC(=O)c1cc(S(=O)(=O)NC2CCN(Cc3ccccc3)CC2)cn1C,i,0.94,-6.0,.,.,-0.6,97.8
O=C(Nc1ccccn1)c1ccc2c(c1)OCCO2,i,1.04,1.8,-23.5,68.8,.,102.6
N#Cc1c(N)nc(SC2CCCCC2=O)c(C#N)c1-c1ccco1 (centres undefined),i,0.91,-13.5,.,.,1.5,.
O=C(NNc1ncccc1-n1cccc1)c1ccc(Cl)cc1,i,0.98,.,.,.,.,94.2
O=C1Nc2ccccc2C1=Nc1ccc(S(=O)(=O)Nc2nccs2)cc1,i,1.06,.,.,.,.,96.9
C/C(N=Nc1nc2ccccc2s1)=N\Nc1ccccc1O,i,1.05,.,.,.,.,100.3
COc1ccccc1-c1nnc(SCc2nc3ccccc3s2)n1C,i,0.92,-8.2,51.2,78.4,-1.2,96.9
O=C(CC1C(=O)NCCN1Cc1ccoc1)NCc1cccc(OC(F)(F)F)c1 (centres undefined),i,1.03,.,.,.,.,100.6
CCOc1ccc(Cn2cc(F)c(=O)[nH]c2=O)cc1,i,1.05,.,.,.,.,71.9
CCOC(=O)c1c(C)[nH]c(C(=O)COC(=O)C2CC(=O)N(Cc3ccccc3)C2)c1C (centres undefined),i,0.94,0.6,25.0,116.6,-2.2,510.9
Cc1ccc(C(=O)OCc2cc3ccccc3[nH]c2=O)cc1,i,1.04,-4.4,.,.,-0.1,104.0
Cc1ccc(CN2C(=O)CCC2C(=O)NC2CC2)cc1 (centres undefined),i,1.05,-18.7,40.0,119.4,-2.2,64.8
COc1ccc(-n2c(O)c(/C=N/n3cnnc3)c3ccccc3c2=O)cc1,i,1.08,-4.8,-14.3,75.6,-0.5,101.6
Cc1ccc(S(=O)(=O)NC(=O)NCc2ccccc2)cc1,i,0.9,0.4,3.2,84.2,-1.5,104.3
CCN(CC)CC(=O)Nc1sc2c(c1C(=O)c1ccccc1C)CCC2,i,0.98,-5.7,33.3,91.5,.,105.9
CCN1CCN(Cc2ccc(NC(=O)c3ccc(C)c(NC(=O)c4nccn4C)c3)cc2C(F)(F)F)CC1,i,0.71,.,.,.,.,102.9
O=C(Nc1ccccc1O)c1cc(S(=O)(=O)N2CCOCC2)ccc1Cl,i,0.87,-11.9,30.0,93.1,-1.2,98.1
O=C(NCN1CCN(c2ccccc2F)CC1)c1cccnc1,i,0.72,-5.0,43.5,79.8,-1.1,124.5
CC(=O)Nc1ccc(SC[C@H](c2ccccc2)N2CCN(CCc3ccccc3)CCC2=O)cc1,i,0.835,.,.,.,.,95.5
O=C(COC(=O)/C=C/c1ccco1)NCc1ccccc1,i,0.99,5.9,.,.,.,104.1
Cc1ccc(CNC(=O)CCC2CCCN(C(=O)CCC(F)(F)F)C2)o1 (centres undefined),i,0.98,-6.9,-28.6,95.7,.,106.2
Cc1ccc(C)c(S(=O)(=O)N2CCCOC2CNC(=O)C(=O)NCc2cccnc2)c1 (centres undefined),i,1.01,-6.2,.,.,.,99.6
CCN(C(=O)c1ccccc1Cl)c1ccccc1,i,1.13,-1.1,18.9,103.3,-3.9,101.8
O=C(NC1CCN(C(=S)NCc2ccco2)CC1)C1CCCCC1,i,0.89,-5.6,37.5,115.2,-2.8,52.2
CC1(C)CC(=O)C2=C(C1)Nc1cc3c(cc1C2c1ccc(F)cc1)OCO3 (centres undefined),i,0.82,-8.9,-100.0,81.8,-0.7,101.2
CN(Cc1nc2ccccc2c(=O)[nH]1)Cc1cc(=O)oc2ccc3ccccc3c12,i,1.04,-4.2,-3.6,119.4,-2.0,107.3
Cc1c(Cl)cccc1NC(=O)CN1C(=O)CSc2ncccc21,i,0.91,-12.4,.,.,-4.3,103.5
COCCSc1ccccc1C(=O)N1CCCC1,i,1.08,-14.9,-16.2,32.4,-1.9,96.7
C=CCN1C(=O)CS/C1=N\S(=O)(=O)c1ccc(Cl)cc1,?,.,2.7,.,.,-1.2,104.2
c1ccc(CNCCN2CCNCC2)nc1,i,0.88,-1.5,-16.7,148.7,-2.4,100.7
CCCCn1nnnc1SCC(=O)Nc1ccc2c(c1)OCCO2,i,1.01,-10.9,54.3,92.8,-1.8,56.6
CC(C)(C)c1n[nH]c2c1CCCC2,i,1,14.9,38.5,187.4,0.0,109.0
Cc1cc(C)n2cc(CSc3ccc(Cl)cc3)nc2n1,i,0.92,.,.,.,.,101.9
O=C1NC(=Nc2ccccc2)S/C1=C\c1cccnc1,i,0.89,.,.,.,.,120.7
CCOC(=O)/C=C1\SCC(=O)N1Cc1ccc(Br)cc1,i,1.2,-5.0,.,.,-2.0,94.7
COc1ccc(NC(=O)c2cc([N+](=O)[O-])nn2Cc2ccccc2)c(C)c1,i,1,13.0,.,.,-3.4,97.6
COc1ccc(N(C(=O)c2ccc(Br)o2)C2C=CS(=O)(=O)C2)c(OC)c1 (centres undefined),i,1.17,-3.4,-95.0,80.0,.,101.6
COc1ccc(-c2[nH]ncc2CN(Cc2nccn2C)C(C)C)c(F)c1,i,0.98,-9.9,.,.,.,185.1
COc1ccc(/C=C/C(=O)Nc2ccccc2)cc1S(=O)(=O)N1CCOCC1,i,0.9,.,.,.,.,96.8
Nc1c([N+](=O)[O-])cc(-c2cnc[nH]2)cc1[N+](=O)[O-],i,0.94,-3.7,.,.,.,89.0
COc1ccc(C(=O)NCc2nnc(SC)n2Cc2ccccc2)cc1,i,0.95,8.5,15.4,62.6,.,95.8
